Bioassay records as filed in PubChem BioAssay.
Bm FixLJ act: activators of Burkholderia fixLJ two-component system, primary screen, B. multivorans, GFP reporter. B. multivorans fixK-promoter GFP reporter, 18 h; active compounds read high. z-score (test concentration not listed). actives 0.3% (n = 29,000);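 active means replicate mean overnight rise in green fluorescent reporter signal, 3 or more SD over negative controls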;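 further: score is relative to vehicle wells of the plate; 300 nL library stock went into each well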
* marks the source's active call; other numbers are inactive results; & = joins results of further samples.

SMILES	Bm FixLJ act
CC(=O)c1cc(CC(=O)NCCc2nc(-c3ccccn3)no2)cs1	-0.99
CCc1nccn1CCC(=O)NCC1CCN(Cc2nnc(C)s2)CC1	1.2
COc1ccc(Nc2nnc(-c3ccc(C)c(S(=O)(=O)NCCO)c3)c3ccccc23)cc1C(N)=O	-0.76
CNc1ccc(Cl)cc1C(=O)N1CCC2(CC1)CNCCO2	1.1
CCn1cc(C(=O)NC(C)c2ccccc2)c(=O)c2cc(S(=O)(=O)N3CCc4ccccc4C3)ccc21 (stereo not drawn)	0.16
CCOC(=O)c1coc(N2CCC(OCc3cccnc3)CC2)n1	0.36
COC(=O)Nc1nc2ccc(Sc3ccccc3)cc2[nH]1	-1.5&-1.8
Cc1ccc(C)c(N(C)C(=O)Cc2c(C(=O)O)[nH]c3ccc(Cl)cc23)c1	-0.42
CCCn1c(NCc2ccc(N(CC)CC)cc2)nc2ccccc21	1.8
COc1ccc(CC(=O)NC2C3CCOC3C2N2CCCC2)cc1 (stereo not drawn)	-0.68
CCC[C@@H]1C[C@@H](C(=O)N[C@@H]([C@H]2O[C@H](SC)[C@H](O)[C@@H](O)[C@H]2O)[C@H](C)Cl)N(C)C1	-1.2&-0.35
COc1ccnc(-c2cccc(C(=O)NC(C)Cc3cc(C)[nH]n3)c2)n1 (stereo not drawn)	-0.89
COc1ccc(CCNC(=O)c2c(O)nc3c(C)cccn3c2=O)cc1	-0.7
CCCCN(CC)CCCNC(=O)c1cc2c(=O)[nH]c3ccccc3c2n1C	-0.77
O=C(O)c1ccc2c(c1)ncn2-c1ccc(F)c(F)c1	-1.1
COc1ccccc1CNC(=O)CCCn1c(=O)c2ccccc2n(CC(=O)Nc2ccc(C)cc2Cl)c1=O	-1.1
Cc1ccc(CNC(=O)C2CCCN(S(=O)(=O)c3ccc4c(c3)oc(=O)n4C)C2)cc1 (stereo not drawn)	-1.3
Cc1ccn2c(Nc3ccc(C(C)C)cc3)c(-c3cccs3)nc2c1	-0.94
CCCSc1ncc(Cl)c(C(=O)NCc2ccc(C)cc2)n1	0.31
CCc1ccc(CN2CCc3c(C(=O)N(C)CCC(C)(C)O)csc3C2)nc1	0.66
O=C(NCc1ccco1)N1CCC2(CCCN(CC3CC3)C2=O)C1 (stereo not drawn)	-0.7
CC(=O)N1CCc2c(sc3c2c(=O)n(Cc2ccccc2)c(=O)n3Cc2ccc(Cl)cc2)C1	0.76
COc1cccc(NC(=O)Cn2c(=O)n(CCc3cccc(C)c3)c(=O)c3ccccc32)c1	-0.92
O=C(c1ccccc1)c1ccc2nc(N3CCN(c4ccc(F)cc4)CC3)c3nncn3c2c1	-1.2
O=C(NCc1ccc(F)cc1)C(=O)Nc1ccc2nc3n(c(=O)c2c1)CCCCC3	-0.9
COc1ccc(NC2=C(c3ccccc3)C(=O)c3ccccc32)cc1Cl	3.8*
Cc1cnc(C)c(-c2cccc(C(=O)N(C)Cc3cc(C4CC4)n[nH]3)c2)n1	0.32
COc1ccc(C2=C(Nc3ccc(Br)c(C)c3)c3ccccc3C2=O)cc1	3.1*
CCOC(=O)c1cc2c(=O)n3ccccc3nc2n(CC(C)C)c1=NC(=O)c1cc2ccccc2o1	-0.48
CCOC(=O)C1CCCN(Cc2cn3c(-c4cccc(Br)c4)nnc3s2)C1 (stereo not drawn)	-1.3
CCOC(=O)C1CCCN(CCC(=O)Nc2ccc(OC)cc2OC)C1 (stereo not drawn)	0.41
COc1ccc(-c2cc(-c3ccccc3)nc(SCC(=O)Nc3ccccc3C)c2C#N)cc1	-2.5
Cc1cccc(-c2c3c(=O)n(C)c(=O)n(C)c3c3c(C)nc4ccccc4n23)c1	-1.3
CCCC(C(=O)OCCN(CC)CC)(c1ccccc1)c1ccccc1	-1
COc1ccc(C(=O)Nc2cc(NC(=O)c3ccco3)ccc2OC)cc1Cl	-2.7
Cn1c2ccccc2c2cnn(CC(=O)Nc3ccccc3C(F)(F)F)c(=O)c21	-3.1
COCCCNC(=O)C(C)n1c2ccccc2c2cnn(C)c(=O)c21 (stereo not drawn)	-2.6
Cc1nc(N)cc(C[n+]2csc(CCO)c2C)n1	-0.39
Nc1cc(=O)nc(SCC(=O)Nc2ccccc2)n1CCc1ccccc1	-1.6
CN(Cc1nccn1Cc1ccccc1)C(=O)CCC(=O)c1ccccc1	0.35
O=C(CCS(=O)(=O)c1ccc(Br)s1)Nc1c(F)cccc1F	0.35
COc1ccc(-n2c(=O)c3c4c(sc3n(CC(=O)C(C)(C)C)c2=O)CCCC4)c(OC)c1	-1.3
Cc1nc(-c2nc(C3(C)CCCO3)n(-c3ccccc3C(=O)O)n2)cs1 (stereo not drawn)	-2.6
Cc1ccc(-c2nc3ncccc3o2)cc1NC(=O)c1ccc(-c2cccc(Cl)c2C)o1	-0.96
COc1ccc(OC)c(NC(=O)CCc2nc(-c3ccc(C)cc3)no2)c1	0.21
CCOc1ccc(Nc2c(S(=O)(=O)c3ccc(Cl)cc3)cnc3ccc(OCC)cc23)cc1	0.44
Cc1nc(C2CCCN(c3ncccn3)C2)cc(N2CCCC2)n1 (stereo not drawn)	-0.38
Cc1ccc(NC(=O)Cn2c(=O)n(CCCCCC(=O)NCc3ccc(F)cc3)c(=O)c3sccc32)cc1C	-0.9
Cc1ccccc1NC(=O)c1c(C)oc2ccc(O)c(CN3CCCC3)c12	-0.04
COC(=O)CSc1nc2sc3c(c2c(=O)n1Cc1ccccc1)CCC(C(C)(C)C)C3 (stereo not drawn)	-0.02
CCCCc1ccc(NC(=O)CSc2nc3ccccc3nc2N2CCCCC2)cc1	-1.6
CCOc1ccccc1C(=O)Nc1cc2c(cc1N1CCOCC1)n(C)c(=O)n2C	0.1
Cc1cccn2c(Nc3ccccc3)c(-c3cccs3)nc12	-0.89
Cc1ccccc1NC(=O)c1cc2c([nH]c1=O)CC(C)(C)CC2=O	-0.75
CCOc1ccc2c(c1)c(=O)c(S(=O)(=O)c1ccc(CC)cc1)cn2CC	-1.1
Cc1ccc2nc(CCNC(=O)C(O)C3CCCCC3)[nH]c2c1 (stereo not drawn)	-1.1
COc1ccc(CCNC(=O)CSCc2nc(-c3cccc(C)c3)oc2C)cc1OC	-1.7
CCCC(C)N1CC2(CCN(C(=O)c3nn(C)cc3Cl)CC2)OC1=O (stereo not drawn)	-3
CCc1ccc(C2CC(=O)NC(NC(=O)c3ccc(C(C)(C)C)cc3)=N2)cc1 (stereo not drawn)	-0.82
Cc1cc(NC(=O)c2cc(-c3ccc(Br)cc3)on2)nn1Cc1ccc(Cl)cc1	-0.71

Going on with the list.
SMILES	Bm FixLJ act
CC(C)OCCCN1C(=O)c2[nH]nc(-c3ccccc3O)c2C1c1cccc(OCc2ccccc2)c1 (stereo not drawn)	1
CCOC(=O)c1c(NC(=O)c2cc(OC)c(OC)c(OC)c2)sc2c1CCCC2	-0.9
CCn1c(CN2CCCC2)nnc1C1CCN(C(=O)C2(N)CC2)CC1	-1.9
O=C(CCn1c(=O)c2ccccc2n(Cc2ccc(F)cc2Cl)c1=O)NCc1ccc2c(c1)OCO2	-1.4
CCCN(C(=O)c1cc2c(s1)-c1ccccc1OC2)c1ccccc1F	0.44
O=C(c1ccc2nc[nH]c2c1)N1CCCC(COc2ccc(F)cc2)C1 (stereo not drawn)	0.34
Cc1cc(NC(=O)CCCn2c(C)c3cnn(-c4ccccc4)c(=O)c3c2C)ccc1Br	-2
COc1ccc(/C=C/C(=O)Nc2ccc3nc4c(c(Nc5ccccc5OC)c3c2)CCCC4)cc1	-0.2
Cc1ccc(OCc2cc(=O)n3c4c(sc3n2)CCCC4)c(C)c1	-0.48
O=C(NCc1ccccc1Cl)C1CCC(CNS(=O)(=O)c2ccc(Br)s2)CC1 (stereo not drawn)	1.5
COc1ccc(NC(=O)CN2C(=O)C(c3ccccc3)=NC23CCC(C)CC3)cc1Cl (stereo not drawn)	-1.4
Cc1nc2ccc(C(=O)NCc3ccc4nsnc4c3)cc2o1	-1.3
Cc1cccc(NC(=O)C(NS(=O)(=O)c2cccc3nsnc23)c2ccccc2)c1C (stereo not drawn)	-2
NC(=O)c1c(NC(=O)c2nc(SCc3ccccc3F)ncc2Cl)sc2c1CCCC2	-0.69
COc1ccc(N(CC(=O)NCCc2ccccc2)S(=O)(=O)c2ccccc2)c(OC)c1	-2.8
CCN1Cc2nc(OC)c(CNC(=O)c3cc(-c4ccc(C)cc4)n[nH]3)cc2C1=O	-1
O=C(Cn1c(=O)nc(-c2ccccc2F)c2cc(Cl)ccc21)NCCCc1ccccc1	-0.84
CCCc1nn(-c2ccc(Cl)cc2)c(=O)n1CC(=O)NCc1ccno1	-1.9
Cc1ccc2occ(CC(=O)Nc3ccc(S(=O)(=O)N4CCC(C)CC4)cc3)c2c1	0.33
CSCCN1CCN(C(=O)c2ccccc2-c2nn[nH]n2)CC1	0.46
O=C(c1ccc(Cn2cnnn2)cc1)N1CCC(c2ccncc2)CC1	-1.4
CCC(Nc1cccc(OC)c1)C(=O)NCCSc1nnnn1C (stereo not drawn)	-0.94
CC(C)c1cc(C(=O)NCCC2CCCCN2S(C)(=O)=O)nc(N)n1 (stereo not drawn)	-0.93
COc1ccc(S(=O)(=O)N2CCC(Oc3ccc(-n4cnnn4)cc3)CC2)cc1	-0.07
CCc1ccccc1C(=O)N1CCC[C@@]2(CN(Cc3nccn3CC)CCC2O)C1 (stereo partly drawn)	-0.13
CC(C)c1ncc(CN2CCC(N3CCN(C)CC3)C(CCC(=O)O)C2)cn1 (stereo not drawn)	-1.7
O=C1CCC2(CCCN(c3ncnc4[nH]ccc34)C2)CN1C1CCCC1 (stereo not drawn)	0.18
CCOc1ccccc1-c1noc(CSc2nnc(-c3ccccc3)n2-c2ccc(OC)cc2)n1	-2.9
Cn1nc(CNC(=O)C2CCCCn3nnnc32)c2c(Cl)cccc21 (stereo not drawn)	3.3*
CCOCCCNC(=O)c1cn(CC)c2ccc(S(=O)(=O)N3CCc4ccccc4C3)cc2c1=O	-0.6
CC1CCc2c(sc(NC(=O)c3ccccc3)c2C(=O)Nc2ccccc2)C1 (stereo not drawn)	0.34
Cc1cccc(NC(=O)CSc2nnc(CNC(=O)c3cccc(C)c3)n2-c2ccccc2)c1	0.86
CC[C@H](C)C(=O)O[C@H]1CCC=C2C=C[C@H](C)[C@H](CC[C@@H]3C[C@@H](O)CC(=O)O3)[C@H]21	-1.8
CCOc1ccc(NS(=O)(=O)c2ccc3[nH]cc(C(=O)N4CCCC4)c(=O)c3c2)cc1	-0.93
Cc1ccc(Cc2ccccc2C(=O)NC2(C(=O)O)CC2)cc1	-1
Cc1cccc(N2CCN(C(=O)c3ccc4c(c3)N(Cc3ccccc3)C(=O)c3ccccc3S4(=O)=O)CC2C)c1 (stereo not drawn)	-0.26
Cc1ccc2nc(CN(C)C(=O)c3ccc(C)c(N4CCNC4=O)c3)[nH]c2c1	0.21
CCCc1cc(=O)n2[nH]c(NC(=O)c3ccc(C(C)(C)C)cc3)nc2n1	0.39
Cc1cc(C)c(NC(=O)Cn2c(=O)n(CCC(=O)N3CCc4ccccc4C3)c(=O)c3ccccc32)c(C)c1	-2.4
CC(C)c1nc(CNC(=O)c2ccc(-c3cc(F)cc(F)c3)nc2)no1	0.64
COc1ccc(NC(=O)Cn2c(=O)n(-c3ccc(OC)cc3)c(=O)c3sc4ccccc4c32)cc1	1.9
O=C(Nc1ccc(Cl)cc1)c1ccc2c(c1)N(Cc1ccccc1)C(=O)c1ccccc1S2(=O)=O	0.17
CCOC(=O)c1cc2c(=O)n3ccccc3nc2n(CC(C)C)c1=NC(=O)COc1ccc(Cl)cc1	0
Cc1cccc(Cn2c(SCc3ccc(C(=O)NC4CCCC4)cc3)nc3ccncc32)c1	-4.9
O=C(NC1CCOCC1OCc1cscn1)c1ccc2ccccc2c1 (stereo not drawn)	-0.17
O=C(CN1C(=O)C(c2ccc(F)cc2)=NC12CCCCCC2)Nc1ccccc1Cl	2
CC1CCN(S(=O)(=O)c2ccc3c(c2)c(=O)c(C(=O)NCc2ccc(Cl)cc2)cn3C)CC1	-1.9
COc1ccc(Cc2nc3ccccc3n2Cc2ccccc2C)cc1	-2.2
O=C(Nc1ccc2oc(-c3ccc4ccccc4c3)nc2c1)c1cc(Br)ccc1Cl	0.65
Cc1ccc(NC(=O)CCSc2nc(-c3ccc4c(c3)OCO4)cc(C(F)(F)F)n2)cc1	-0.83
COc1ccc(CNC(=O)N2CC(Oc3ccccc3C)C2)c(OC)c1	-1.8
COc1cccc(NC(=O)Cn2c(=O)n(CCCCC(=O)NCc3ccc4c(c3)OCO4)c(=O)c3ccccc32)c1	-1
Cc1cc(C)cc(NC(=O)N2CCC(C(N)=O)(N3CCCCC3)CC2)c1	-0.51

For reference, part of the list above:
SMILES	Bm FixLJ act
COc1ccc(NC(=O)Cn2c(=O)n(-c3ccc(OC)cc3)c(=O)c3sc4ccccc4c32)cc1	1.9
O=C(Nc1ccc(Cl)cc1)c1ccc2c(c1)N(Cc1ccccc1)C(=O)c1ccccc1S2(=O)=O	0.17

Given as labelled records: part of the list above.
Cc1ccc(NC(=O)CCSc2nc(-c3ccc4c(c3)OCO4)cc(C(F)(F)F)n2)cc1
  Bm FixLJ act: -0.83
COc1ccc(CNC(=O)N2CC(Oc3ccccc3C)C2)c(OC)c1
  Bm FixLJ act: -1.8
COc1cccc(NC(=O)Cn2c(=O)n(CCCCC(=O)NCc3ccc4c(c3)OCO4)c(=O)c3ccccc32)c1
  Bm FixLJ act: -1
Cc1cc(C)cc(NC(=O)N2CCC(C(N)=O)(N3CCCCC3)CC2)c1
  Bm FixLJ act: -0.51

Some of the compounds tested (hit frequency here may not be typical).
